Assay outcomes as filed in PubChem.
MT1-MMP act inh – inhibitors of human MT1-MMP activation; AID 651647; HT1080 RFP-PRO-GFP cells, GFP/RFP ratio fluorescence, overnight; percent of plate control window, DMSO zero; 360,000 tested, 0.061% active; GFP/RFP ratio change, % at 20 µM;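 active = GFP/RFP ratio change of at least 30% with cell ATP level not reduced by more than half and red fluorescence within 50% of control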; also: strong numbers were not always called active
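Read-out: GFP/RFP fluorescence ratio; Test system: RFP-PRO-GFP reporter HT1080 cells; Compound dosing: single-point 20 µM compound, 1% DMSO; Times: overnight compound exposure at 37 °C.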
PABP FP inh – PABP-poly(A) binding inhibition | P11940 | PABP-poly(A) RNA binding, fluorescence polarization | inhibition, % at 35 µM | 290,000 tested, 1% active | AID 2014;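 active = 50% or more with normal probe brightness, or confirmed in later tests; inconclusive = above 50% with abnormal brightness, or retests that disagree; inactive = below 50% or failed in later tests; about a fifth of its hits are not listed in these tables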;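 also: calls also rest on retests at 20 µM and on dose response follow-up; controls were probe without protein and protein plus probe with vehicle; some compounds called inactive have numbers as strong as hits; many hits fall short of the cut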
Target sequence (P11940 whole entry, looked up): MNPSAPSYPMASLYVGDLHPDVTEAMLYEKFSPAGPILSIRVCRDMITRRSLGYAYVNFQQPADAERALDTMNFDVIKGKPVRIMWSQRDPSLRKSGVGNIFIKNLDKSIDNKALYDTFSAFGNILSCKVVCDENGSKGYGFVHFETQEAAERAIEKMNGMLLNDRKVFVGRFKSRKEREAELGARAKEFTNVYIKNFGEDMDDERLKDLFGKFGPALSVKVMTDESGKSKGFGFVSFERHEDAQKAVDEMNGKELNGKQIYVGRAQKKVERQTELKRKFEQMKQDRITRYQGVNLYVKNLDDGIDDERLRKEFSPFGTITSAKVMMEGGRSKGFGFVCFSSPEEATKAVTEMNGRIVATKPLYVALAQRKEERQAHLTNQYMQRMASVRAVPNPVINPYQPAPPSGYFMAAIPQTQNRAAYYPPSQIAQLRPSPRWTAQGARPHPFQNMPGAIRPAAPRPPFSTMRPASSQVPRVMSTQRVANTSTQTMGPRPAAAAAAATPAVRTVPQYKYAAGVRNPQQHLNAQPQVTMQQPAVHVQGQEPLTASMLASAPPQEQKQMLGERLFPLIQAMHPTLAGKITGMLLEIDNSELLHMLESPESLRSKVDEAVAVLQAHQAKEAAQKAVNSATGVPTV
eIF4H FP inh – inhibitors of RNA binding by human eIF4H | eIF4H fluorescence polarization binding assay | inhibition, % at 35 µM | Q15056 | 290,000 tested, 0.94% active;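 active = 50% or more with normal probe brightness, or confirmed in later tests; inconclusive = above 50% with abnormal brightness, or retests that disagree; inactive = below 50% or failed in later tests; about a fifth of its hits are not listed in these tables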;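 also: calls also rest on retests at 20 µM and on dose response follow-up; 0% = protein and probe with vehicle and 100% = probe without protein; strong numbers were not always called active; many hits fall short of the cut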
Rce1 inh – inhibitors of yeast Ras-converting enzyme | Q03530 | yeast membranes, quenched prenylated peptide cleavage fluorescence | calls only | 290,000 tested, 0.27% active | AID 2563;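 active = fall in fluorescence gain of 50% or more versus controls, with final raw signal at or below 3038400; inconclusive = same 50% fall but final raw signal above 3038400; inactive = fall in fluorescence gain under 50%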;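 also: plate controls were neutral control wells for no effect and wells lacking membranes for full effect; tested at 10 µM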
HIV Env fusion – HIV envelope-mediated fusion inhibition; 360,000 tested, 1.1% active; HeLa-JRFL Env/CEM21 cell fusion, luciferase; inhibition, % at 12.3 µM; AID 651610;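 active = mean replicate inhibition score of at least 50 and every replicate individually at or above 50; inconclusive = only one of the two criteria met; inactive = mean below 50 and not all replicates reaching 50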;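 also: 0% = plate neutral controls and 100% = maraviroc near 300 nM; one replicate is shown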
Yeast UUG start – alters start codon recognition fidelity in yeast | S. cerevisiae UUG-firefly luciferase reporter, luminescence/redox ratio | 350,000 tested, 0.13% active | activity score, % at 18.7 µM;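 active = replicate mean at a twofold rise or more, about +100% in these data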;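 also: firefly luciferase made from a UUG start codon reports start codon fidelity; reporter light over untreated wells divided by growth signal over untreated wells; some hits fall short of that in this replicate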
CSC inhib – blocks cancer stem cells | cancer stem cell-like cells viability, luminescence | inhibition, % at 7.5 µM | 300,000 tested, 1.1% active;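 active = mean at 75% or more and at least half the replicates too; inconclusive = mean and replicates disagree; tested in HMLE shEcad cells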;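 also: 0% = median of negative and 100% = median of positive control wells; the first replicate is given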
eIF4H FP inh retest – also measured in eIF4H FP inh; calls as there; inhibition, %; compound at 20 µM; confirmation average;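 mean of two retest wells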
PABP FP inh retest – recorded beside PABP FP inh, whose call it bears; inhibition, %; compound at 20 µM; confirmation repeats;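 mean of two retest wells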
MT1-MMP act inh RFP – second read-out of MT1-MMP act inh, no call of its own (marks repeat the call); RFP signal change, %; measured here: RFP expression control read;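 0 = vehicle wells; hits needed this value within 50% of zero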
An asterisk follows results filed as active; i = inactive; ? = inconclusive; . = not tested or not shown; + = active, no number.

SMILES	MT1-MMP act inh	MT1-MMP act inh RFP	PABP FP inh	eIF4H FP inh	Rce1 inh	HIV Env fusion	Yeast UUG start	CSC inhib	others
O=c1[nH]c(=S)n(-c2ccccc2)c(O)c1C=NCCN1CCNCC1	-3.2	2.5	-2.7	-3.0	i	9.3	-15.8	2.8
CCN(CC)C(=O)c1ccc(NC(=O)c2cccc(S(=O)(=O)N3CCN(Cc4ccccc4)CC3)c2)cc1	-7.0	-25.0	.	.	i	-1.2	.	-4.1
COc1ccc(OCCOc2cccc(C=C3C(=O)NC(=O)NC3=O)c2)cc1	.	.	14.4	-4.6	i	.	.	-2.1
CC(=O)c1cccc(NC2=NCC(C)S2)c1 (stereo not given)	6.5	2.3	9.8	-4.3	i	-46.5	-16.9	-8.4
CCOC(=O)c1cn2nc(OP(=S)(OCC)OCC)cc2nc1C	-2.1	-0.4	8.8	-4.8	i	.	-11.1	-2.6
O=C(CN1CCCCC1)Nc1ccc(Br)cc1C(=O)c1ccccc1Cl	-2.9	-3.4	-2.4	12.1	i	-34.3	2.5	10.0
O=C1NCN(c2ccccc2)C12CCN(C(c1ccnc3ccccc13)c1nnnn1C1CCCCC1)CC2 (stereo not given)	1.8	-7.7	.	.	.	-8.3	4.3	.
COc1ccc(C(c2nnnn2C2CCCCC2)N2CCC3(CC2)C(=O)NCN3c2ccccc2)cc1 (stereo not given)	3.0	-9.8	.	.	.	-37.5	-4.3	.
O=C(/C=C/c1ccc(F)cc1)NC(=S)N1C[C@H]2C[C@H](C1)c1cccc(=O)n1C2	4.1	1.9	22.9	3.0	i	.	-15.9	3.8
COc1ccc(NC(=O)[C@@H](NC(=O)N2C[C@H]3C[C@@H](C2)c2cccc(=O)n2C3)C(C)C)cc1	-0.1	9.5	-3.1	0.6	.	.	-15.3	-5.8
C1CC2NCCC3NCCC(N1)N32 (stereo not given)	-2.9	4.2	-3.4	5.0	i	18.4	-19.7	11.4
Clc1cc(Cl)cc(NC2=NCCS2)c1	-0.2	1.1	3.7	-15.0	i	5.3	-7.5	-2.2
CCN1CCN(c2ccc(N)cc2)CC1	-2.4	-1.0	-11.1	8.3	i	3.6	.	1.6
COc1ccc(CCn2c(O)c(C=Nc3ccc(NC(C)=O)cc3)c(=O)[nH]c2=O)cc1OC	-1.2	-1.8	87.1	60.1	i	-8.4	1.1	.	eIF4H FP inh retest=44.8;PABP FP inh retest=38.9
COCCNC(=O)c1c(NC(=O)c2ccc(Br)o2)n(Cc2ccccc2)c2nc3ccccc3nc12	-139.5	-4.0	2.4	-3.4	i	27.3	-3.6	13.9
CC1=C(C/C(C)=C/c2ccccc2)/C(=C/CO)[C@H](O)[C@](C)(O)C12CC2	-0.3	-2.7	.	.	i	2.7	12.4	17.3
CN1CCN(c2nc(N)c(Br)c(Cl)n2)CC1	-1.3	1.9	5.9	1.8	i	-10.9	-11.7	-11.2
CS(=O)(=O)c1ccc(C2=C(CNC(=O)c3cccs3)[C@H]3CC[C@@H](C2)N3Cc2ccco2)cc1	4.3	8.0	.	.	.	6.4	-16.9	.
O=C(Nc1ccccc1)N1Cc2ccccc2-n2nncc2C1	-0.3	1.3	.	.	.	20.3	-12.7	.
C=CCn1c(O)c(C(C)=Nc2ccc3c(c2)CCC3)c(=O)[nH]c1=O	2.2	0.4	1.2	2.5	i	8.7	.	12.6

Random excerpt: two records from the list
SMILES	MT1-MMP act inh	MT1-MMP act inh RFP	PABP FP inh	eIF4H FP inh	Rce1 inh	HIV Env fusion	Yeast UUG start	CSC inhib	others
O=C(Nc1ccccc1)N1Cc2ccccc2-n2nncc2C1	-0.3	1.3	.	.	.	20.3	-12.7	.
Clc1cc(Cl)cc(NC2=NCCS2)c1	-0.2	1.1	3.7	-15.0	i	5.3	-7.5	-2.2

Next results follow:
SMILES	MT1-MMP act inh	MT1-MMP act inh RFP	PABP FP inh	eIF4H FP inh	Rce1 inh	HIV Env fusion	Yeast UUG start	CSC inhib	others
O=C1NC(=O)N(c2ccc(F)cc2)C(=O)/C1=C/c1ccsc1	-6.6	5.3	1.0	0.9	i	2.7	-6.6	-10.0
O=C1/C(=C/c2cc3c(cc2Cl)OCO3)N2CCC1CC2	.	.	8.0	53.6	i	.	.	-9.5	eIF4H FP inh retest=-5.5;PABP FP inh retest=-1.4
COC(=O)C1=C(c2cccc(OCc3ccccc3)c2)C[C@@H]2CC[C@H]1N2C(=O)NCc1ccc(Cl)cc1	1.4	-6.3	.	.	.	20.0	-18.8	24.5
CCOc1cc(-c2nc3c(C)cccn3c2NCC2CCCO2)ccc1O (stereo not given)	-4.5	5.8	2.0	-7.6	+	-58.4	-12.3	-5.0
COc1ccccc1NC(=O)COC(=O)c1cn(C)c2ccccc12	2.1	-2.6	.	.	.	7.2	-4.9	11.1
O=c1[nH]c(=O)n(CCC2=CCCCC2)c(O)c1/C=N/Nc1ccccc1	-5.0	0.7	5.9	1.5	i	16.8	.	97.4*
Cc1ccc(-c2nc3ccccc3c(=O)n2-c2cc(C)ccn2)cc1	9.2	3.5	-8.6	-18.2	i	-41.1	-15.1	7.9
COc1cc(OC)c(OC)cc1CNCCc1cccc(F)c1	-3.1	2.0	-4.0	-2.9	i	-4.2	4.1	-6.9
COc1ccc(-n2c(-c3ccccc3Br)nc3ccccc3c2=O)cc1	-5.7	0.0	0.5	-7.4	i	-20.8	-10.4	-4.5
CC(C)CCn1c(=O)c(C(=O)NCc2ccco2)c(O)c2ccccc21	5.4	9.0	-0.5	6.5	i	-0.1	-13.4	3.2
COC(=O)C1=C(c2c(C)noc2C)C[C@@H]2CC[C@H]1N2C(=O)NCCOc1ccccc1Cl	1.5	-0.2	.	.	.	-13.6	-9.0	-4.8
Cn1c(N2CCNCC2)nc2ccccc21	1.9	-2.6	-0.3	-0.6	i	.	-8.3	-1.0
C[C@]12CCC(OC(=O)CCC(=O)O)CC1=CCC1C2CC[C@]2(C)C(=O)CCC12 (stereo not given in full)	6.0	0.5	3.7	7.2	i	5.5	-12.0	-16.6
CCCCC(=O)C1C(=O)NC(=O)NC1=O	1.3	3.6	-4.8	-0.8	i	-42.5	5.7	-13.9
O=C1NC(=O)N(Cc2ccccc2)C(=O)/C1=C/c1cnc(-c2ccccc2)nc1	-12.0	0.3	-0.6	19.3	i	3.6	.	.
CNC(C(=O)c1ccccc1)C(OC)c1ccc(C)cc1 (stereo not given)	0.9	4.0	-7.4	-5.3	i	9.3	.	-11.0
CCCCn1c(=O)c(C(=O)Nc2ncccc2C)c(O)c2ccccc21	-3.2	-3.8	-3.1	21.7	i	?	3.2	8.3
CCN(CC)c1ccc(N=Cc2c(O)n(-c3ccc(Cl)cc3)c(=O)[nH]c2=O)cc1	-96.7	4.9	?	?	i	.	1.0	32.8
CC(=O)c1c(C)n(Cc2ccccc2)c2ccc(O)cc12	-5.2	-12.0	-4.2	5.8	i	36.1	-20.2	17.4
c1ccc2sc(C3CCCNC3)nc2c1 (stereo not given)	-2.6	-1.5	-3.0	-12.6	i	3.7	-14.9	-5.9
Cc1ccc(-n2c(O)c(/C=N/N3CCCCCC3)c(=O)[nH]c2=O)cc1C	-6.9	-6.9	-1.6	9.6	i	5.4	0.5	-6.4
Fc1ccc(CCNCc2ccc(Cl)c(Cl)c2)cc1	4.4	4.7	2.4	-6.3	i	.	-18.4	30.8
COc1ccc(-c2ccc3c(c2)CN(C(=O)C(C)(C)C)Cc2cnnn2-3)cc1	-1.9	-5.9	.	.	.	3.7	-21.8	.
Cc1cccc(CN2CCN(c3ccc(Cl)cc3)CC2)c1	1.3	4.0	4.7	1.2	i	7.5	.	15.1
Cc1cc(OCC(=O)NC(Cc2ccc(Cl)cc2)C(=O)O)c2c3c(c(=O)oc2c1)CCCC3 (stereo not given)	-0.1	-0.4	1.9	5.5	.	.	-4.4	-8.6
Cc1sc(-n2c(C)cc(C=C3C(=O)NC(=O)NC3=O)c2C)c(C#N)c1C	.	.	-6.8	?	i	-5.0	.	-8.4
COc1ccc(OC)c(-n2c(O)c(C=NCCN3CCNCC3)c(=O)[nH]c2=S)c1	-3.3	-0.1	1.8	-7.5	i	-9.2	-3.5	-7.0
COc1cccc(C(=O)N2C[C@H]3C[C@@H](C2)c2cccc(=O)n2C3)c1	2.3	4.3	1.4	18.7	.	.	-16.3	5.1
Cc1ccc(CN(Cc2ccccc2)C(=S)NCC(=O)N2CCC3(CC2)OCCO3)o1	-0.4	-2.7	-6.3	1.8	i	-15.0	.	63.5
Cc1ccc2cc(CNCCc3ccccc3C)c(=O)[nH]c2c1	-4.2	-1.4	1.7	-10.0	i	12.0	-11.9	-1.1
CN1CN=C(N[N+](=O)[O-])N(Cc2ccco2)C1	3.9	4.9	2.8	5.8	i	0.8	-15.6	-9.5
CCCC/C(=N/O)c1c(C)[nH]c2ccccc12	0.7	1.8	9.3	-9.5	i	-3.1	.	7.6
c1ccc2c(CCNC3CCCCC3)c[nH]c2c1	0.3	2.7	-5.0	-2.1	i	4.0	.	2.5
COc1ccc2c(c1O)-c1c(OC)c(OC)cc3c1[C@H](C2)N(C)CC3	0.6	1.9	.	.	.	-78.7	-2.3	-2.1
CCn1c(O)c(/C=N/NC(=O)c2ccccc2)c(=O)[nH]c1=S	7.4	5.5	2.3	-2.4	i	-9.8	.	3.8
CCN(CC)P(=O)(Oc1cccc(C)c1)N(CC)CC	-7.4	-7.9	-0.7	-7.8	i	.	-6.3	1.7
C[C@]12C[C@@H](O)[C@H](O)CC1=CCC1C2CC[C@@]2(C)C1CC[C@@H]2O (stereo not given in full)	1.3	-2.3	.	.	.	-8.0	-17.9	-17.0
O=P(O)(O)/C=C(\Cl)c1ccccc1	-1.6	-1.1	0.1	-0.8	i	-24.4	-16.4	1.4
O=C(c1cccn2c(=O)c3cc(Br)ccc3nc12)N1CCC2(CC1)OCCO2	-0.2	-2.3	0.9	-0.6	i	34.4	-3.4	.
O=C1OCCN1P(=O)(c1ccccc1)c1ccccc1	-2.2	2.4	9.2	-7.9	i	.	-13.7	-6.7
Cc1c(C=O)c2ccccc2n1Cc1ccc(F)cc1	-3.0	1.6	-6.3	0.1	i	15.9	8.2	6.3
CNc1cc(N2CCNCC2)ccc1[N+](=O)[O-]	1.7	2.0	?	-5.7	i	5.2	.	-1.8
N=C(N)c1c(O)n(C2CCCCC2)c(=O)n(C2CCCCC2)c1=O	-8.6	-10.3	10.3	-5.9	i	.	.	101.7*
CCOC(=O)C(O)(c1ccc(N(CC)C(=O)COc2ccccc2)cc1)C(F)(F)F (stereo not given)	-13.2	-5.9	-1.5	4.8	i	.	.	0.7
Cn1cccc1/C=C1\C(=O)NC(=O)N(CCC2=CCCCC2)C1=O	4.8	4.9	3.6	?	i	-41.4	.	.
Cc1ccc(NP(=O)(c2ccccc2)c2nc3ccccc3s2)cc1 (stereo not given)	0.3	0.5	-12.1	-6.8	i	-2.4	.	-13.0
c1ccc(CNC2=NCCS2)cc1	2.8	4.9	3.5	3.9	i	.	-10.0	-16.6
CCNC(=O)C1OC(n2cnc3c(N)ncnc32)C(O)C1O (stereo not given)	5.6	6.4	.	.	i	.	-14.0	.
COc1cc2c(c(OC)c1OC)-c1ccc(O)cc1[C@@H](NC(C)=O)CC2	20.9	4.5	.	.	i	-246.1	-16.0	4.0
O=P(Nc1ccccc1)(Nc1ccccc1)Oc1ccccc1	0.7	0.0	-4.4	-2.0	.	6.7	.	-4.6

Not all compounds are listed; rates above refer to the full screens.
